High-throughput results (PubChem BioAssay)
MLL AF4-AF9 inh: inhibitors of AF4 peptide binding to AF9, primary screen, biochemical, AlphaScreen, biotin-AF4 peptide, FLAG-AF9, single point; Protein AF-9 (Homo sapiens), P42568; inhibition, % at 10 µM; AID 651704, 2012; actives 0.47% (n = 350,000);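 active means every replicate reaching a set inhibition limit, whatever the replicate mean, cut at about 25% in these data; inconclusive means mean inhibition reaches that limit but some replicates miss it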;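 further: 0% = plate neutral control median and 100% = total signal loss; the record names both 10 and 1 µM as test concentration; the first replicate is given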
Target sequence (P42568 whole entry, looked up): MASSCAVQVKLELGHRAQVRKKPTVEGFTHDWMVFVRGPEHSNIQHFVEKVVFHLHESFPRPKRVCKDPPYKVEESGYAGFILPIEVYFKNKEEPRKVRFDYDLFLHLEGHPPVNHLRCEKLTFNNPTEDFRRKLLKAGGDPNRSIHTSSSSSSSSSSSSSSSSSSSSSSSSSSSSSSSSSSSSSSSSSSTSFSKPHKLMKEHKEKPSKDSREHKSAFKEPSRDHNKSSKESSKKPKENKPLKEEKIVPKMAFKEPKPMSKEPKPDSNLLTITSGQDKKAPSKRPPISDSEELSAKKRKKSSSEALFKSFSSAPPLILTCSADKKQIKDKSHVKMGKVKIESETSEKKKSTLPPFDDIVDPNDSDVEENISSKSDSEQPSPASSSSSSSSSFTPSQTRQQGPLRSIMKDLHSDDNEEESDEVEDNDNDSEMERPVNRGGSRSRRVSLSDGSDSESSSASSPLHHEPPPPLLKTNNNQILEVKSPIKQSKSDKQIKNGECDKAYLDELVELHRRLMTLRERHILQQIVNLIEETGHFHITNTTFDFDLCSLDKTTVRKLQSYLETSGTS
FGF22 binding: binders of human FGF22 protein, primary screen, FGF22 synaptogenesis inhibitor project, biophysical, thermal shift, single point | Fibroblast growth factor 22 (Homo sapiens), Q9HCT0 | calls only at 9.99 µM | actives 1.5% (n = 340,000) | recombinant FGF22 thermal shift, SYPRO orange fluorescence; percent of sucrose octasulfate shift, DMSO zero;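 active means melting point raised past a set limit in the mean and every replicate; inconclusive means no clear call; three in four hits are not shown here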
Target sequence (Q9HCT0 whole entry, looked up): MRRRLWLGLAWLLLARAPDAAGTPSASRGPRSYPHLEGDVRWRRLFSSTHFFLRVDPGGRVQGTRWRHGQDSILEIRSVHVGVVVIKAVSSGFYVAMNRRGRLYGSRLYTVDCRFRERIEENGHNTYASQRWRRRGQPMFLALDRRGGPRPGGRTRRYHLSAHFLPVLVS
HNF4A DNA FP: change in binding of human HNF4A to DNA, primary screen, biochemical, fluorescence polarization, FITC-DNA. 1 h. activity change, % at 10 µM. Hepatocyte nuclear factor 4-alpha (Homo sapiens), P41235. AID 1224865, 2016. actives 0.3% (n = 360,000); in the data active means activity change above about 30%, passing the limit was not always enough;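 further: controls were the assay level and a saturating level of protein; the project sought stronger binding though the title names inhibitors; some compounds called inactive have numbers as strong as hits; positive values seem to mean higher polarization but the record does not say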
ALR inh: inhibitors of human ALR sulfhydryl oxidase, primary screen, biochemical, H2O2 detection, HRP-luminol luminescence, single point; FAD-linked sulfhydryl oxidase ALR (Homo sapiens), P55789; purified ALR, DTT oxidation; inhibition, % (concentration not given with the values); AID 485317, 2010; actives 3.8% (n = 290,000);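 active means mean and each replicate at 75% or more; inconclusive means only one of the two met; inactive means neither met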;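 further: stock transfer was 7.5 nL into about 7.5 µL; 0% = neutral wells and 100% = wells with inactivated enzyme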
Target sequence (P55789 whole entry, looked up): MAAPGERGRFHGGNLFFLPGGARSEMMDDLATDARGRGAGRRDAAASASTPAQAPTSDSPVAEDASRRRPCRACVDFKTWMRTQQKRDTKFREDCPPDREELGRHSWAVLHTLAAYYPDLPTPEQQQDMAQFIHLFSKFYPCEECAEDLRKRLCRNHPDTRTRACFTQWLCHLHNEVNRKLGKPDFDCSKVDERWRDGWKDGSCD
Ecoli rRNA inh: reduced GFP signal of wild-type E. coli, primary screen, bacterial rRNA inhibitor project, GFP/RFP fluorescence, OD600, single point; E. coli WT GFP vs humanized-ribosome RFP mutants, 24 h; hits give low values; DMSO median 0, no signal -100; GFP signal change (wild-type ribosome), % (concentration not given with the values); actives 1.6% (n = 350,000);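 active means significant combined selectivity score with lowered wild-type GFP, culture density cut under 30%, mutant RFP and density less affected; inactive means any of these conditions unmet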; further: one replicate is shown; some compounds called inactive have numbers as strong as hits
E coli growth: E. coli growth inhibition, primary screen, OD600. Escherichia coli growth, 23 h; hits give low values. OD600 absorbance (test concentration not listed). actives 0.21% (n = 330,000);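 active means OD600 absorbance below the run mean of sample wells minus 3.6 SD, in any replicate, cut at about 0.56 in these data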;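 further: stock transfer was 300 nL into about 60 µL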
Vif A3G: inhibitors of Vif binding to APOBEC3G peptide, primary screen, biochemical, TR-FRET, GST-Vif 1-94, biotin-A3G peptide, dose response retest (AID 1117319) | Virion infectivity factor (Human immunodeficiency virus type 1 group M subtype B (isolate … | TR-FRET GST-Vif / biotin-A3G peptide binding; higher % means a stronger effect; test concentration not given here; strong numbers were not always called active | inhibition, %, or IC50 in µM where a hit was titrated | actives 0.57% (n = 260,000);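 active means above the screen mean plus three standard deviations and confirmed in dose response; inconclusive means results disagree or hit not tested in dose response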;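 further: Vif residues 1-94 fused to GST binding biotinylated APOBEC3G peptide 110-148; 0% = full assay without inhibitor and 100% = GST in place of GST-Vif; retest series ran down from 100 µM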
Ecoli rRNA inh OD600: second read-out of Ecoli rRNA inh, no call of its own (marks repeat the call); OD600 change, %; measured here: OD600 growth;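 optical density of the mix in the first replicate; 0 = DMSO median and -100 = no signal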
Ecoli rRNA inh RFP: second read-out of Ecoli rRNA inh, no call of its own (marks repeat the call); RFP signal change, %; measured here: RFP humanized mutant strains;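 first replicate; 0 = DMSO median and -100 = no signal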
Numbers without * were called inactive; i = inactive; ? = inconclusive; nt = not tested or not shown.

cpd	compound	MLL AF4-AF9 inh	FGF22 binding	HNF4A DNA FP	ALR inh	Ecoli rRNA inh	Ecoli rRNA inh OD600	Ecoli rRNA inh RFP	E coli growth	Vif A3G
1	O=C1CSC(c2c(F)cccc2Cl)N1c1cccc(F)c1 (centres undefined)	nt	nt	0.1	nt	nt	nt	nt	0.689	3.6%
2	CNC[C@@H]1Oc2cc(C#CCC3CCCC3)ccc2S(=O)(=O)N([C@@H](C)CO)C[C@H]1C	7.2	i	nt	nt	1.3	-25.4	1.2	nt	nt
3	O=C(O)COc1ccc2c(c1)CCCC2	nt	nt	-3.1	-1.7	nt	nt	nt	0.661	-1.8%
4	c1cc2[nH]snc2c2nc(C3CC3)nc12	nt	nt	10.0	-29.3	nt	nt	nt	0.653	?
5	Cn1nc(C(=O)N2CCN(c3ccccn3)CC2)c2ccccc2c1=O	-14.6	i	-4.2	-8.9	0.4	-4.5	-0.7	0.659	3.6%
6	COc1ccc2c3c(n(C)c2c1)[C@@H](CO)N(C(=O)C1CC1)CC31CN(C(=O)Nc2cccc(F)c2)C1	0.6	i	nt	nt	-3.8	-5.0	7.8	nt	nt
7	Cc1cccc(N2CCC(N3CCN(C4CCCCC4)C(CCO)C3)CC2)c1C (centres undefined)	7.2	i	-0.5	27.5	9.5	3.2	0.2	0.668	-8.8%
8	Cc1cc(Cl)ccc1C(=O)C1CCCN(C(=O)/C=C/c2cnn(C)c2)C1 (centres undefined)	-58.5	i	-0.2	-1.5	-17.0	-9.6	-2.5	0.67	4.6%
9	C[C@@H]1CC=C[C@@H]2[C@H]1C(=O)N(Cc1ccccc1)[C@H]2c1cccc(C#Cc2ccccc2)c1	-2.8	i	-0.5	nt	11.1	7.9	1.4	0.717	-0.1%
10	Cc1noc(C)c1NC(=O)Nc1ccc2c(c1)C(=O)N([C@H](C)CO)C[C@H](C)[C@H](CN(C)S(=O)(=O)c1cccs1)O2	-2.7	i	nt	nt	-0.1	0.6	-3.0	nt	nt
11	CCCCN(C=O)c1c(CC)nc2c(OCCOc3ccccc3)cccn12	-9.0	i	2.6	nt	-8.0	-16.8	6.2	nt	nt
12	Cc1ccc(OC(F)F)c(NC(=O)Nc2cccc(C(F)(F)F)c2)c1	-26.2	i	4.3	-1.4	-55.5	-78.8	-31.3	0.666	-6.2%
13	Cc1ccc(S(=O)(=O)N2CCCCC2C(=O)O)cc1 (centres undefined)	-1.5	i	1.4	-15.2	12.2	10.4	0.5	0.673	10.0%
14	COc1cccc(C(=O)N2CCn3c2nc2ccccc23)c1	9.3	i	-2.9	-3.8	3.6	7.8	0.8	0.673	0.2%
15	CCCCCC(=O)N/N=C(\C)c1ccc(N2CCCCC2)cc1	12.6	i	1.2	3.8	5.9	22.9	-7.8	nt	-3.4%
16	Cc1ccc(-c2cnc3c(c2)C(=O)N([C@@H](C)CO)C[C@@H](C)[C@H](CN(C)Cc2ccccc2C(=O)O)O3)cc1	-2.6	i	nt	nt	1.1	8.7	1.4	nt	nt
17	COc1ccccc1C(=O)NC(=O)COC(=O)C1CC1	-0.6	i	-3.9	-9.3	3.2	6.9	0.1	0.625	6.8%
18	Cc1cnc(NC(=O)CN(C)S(=O)(=O)c2ccc(Cl)cc2)s1	nt	nt	-2.5	-3.6	nt	nt	nt	0.732	-2.3%
19	COc1ccccc1NC(=O)N[C@H]1CC[C@@H](CCn2cc(-c3cccnc3)nn2)O[C@@H]1CO	-16.4	i	nt	nt	1.1	4.5	-0.2	nt	nt
20	C[C@@H]1CN([C@@H](C)CO)C(=O)c2cc(NC(=O)Nc3cccc4ccccc34)ccc2O[C@@H](C)CCCCO[C@@H]1CN(C)Cc1ccc(C(=O)O)cc1	2.2	i	nt	nt	-0.8	0.5	2.6	nt	nt
21	CN(Cc1ccccc1)C(=O)c1cccc(NC(=O)Cc2cccc(NC(=O)C3CCN(C(=O)C4CCC4)CC3)c2)c1	-3.4	i	2.7	nt	-5.3	-14.4	-2.6	0.676	-8.1%
22	COC(=O)c1cc(NC(=O)C2CC=CCC2C(=O)O)cc(C(=O)OC)c1 (centres undefined)	nt	nt	-0.4	-20.4	nt	nt	nt	0.711	5.7%
23	O=C(Nc1ccc2c(c1)OCO2)C1CC(c2ccccc2O)=NO1 (centres undefined)	2.3	i	1.4	13.8	-12.8	-6.7	-1.5	0.669	nt
24	COc1ccc(COC(=O)c2cc([N+](=O)[O-])ccc2N2CCOCC2)cc1F	9.9	i	0.4	-7.6	-11.9	-3.5	2.3	0.687	-4.5%
25	CCOC(=O)c1nc[nH]c1C	-37.6	i	2.4	-0.3	19.2	12.5	-7.0	0.641	-1.3%
26	O=c1oc2ccccc2cc1NCc1ccccc1O	19.3	i	0.7	96.3*	-36.8	-49.2	-5.4	0.684	7.1%
27	CCOc1ccc(S(=O)(=O)NCc2ccc(F)cc2)c2cccnc12	nt	nt	0.1	-6.1	nt	nt	nt	0.706	-3.9%
28	COC(=O)C1=C(C)N(c2ccc(Cl)c(Cl)c2)C(=O)C1	nt	nt	1.5	26.0	nt	nt	nt	0.728	15.2%
29	COc1ccc(C(=O)COC(=O)CN2C(=O)NC(C)(C)C2=O)cc1OC	nt	nt	-2.3	-25.4	nt	nt	nt	0.731	23.8%
30	CN1CC(=O)NC1=NC(=O)c1ccc(Cl)c(S(=O)(=O)N2CCCCCC2)c1	nt	nt	3.1	-0.6	nt	nt	nt	0.685	6.5%

Brought forward from above: six compounds; new compounds follow.
cpd	compound	MLL AF4-AF9 inh	FGF22 binding	HNF4A DNA FP	ALR inh	Ecoli rRNA inh	Ecoli rRNA inh OD600	Ecoli rRNA inh RFP	E coli growth	Vif A3G
25	CCOC(=O)c1nc[nH]c1C	-37.6	i	2.4	-0.3	19.2	12.5	-7.0	0.641	-1.3%
26	O=c1oc2ccccc2cc1NCc1ccccc1O	19.3	i	0.7	96.3*	-36.8	-49.2	-5.4	0.684	7.1%
27	CCOc1ccc(S(=O)(=O)NCc2ccc(F)cc2)c2cccnc12	nt	nt	0.1	-6.1	nt	nt	nt	0.706	-3.9%
28	COC(=O)C1=C(C)N(c2ccc(Cl)c(Cl)c2)C(=O)C1	nt	nt	1.5	26.0	nt	nt	nt	0.728	15.2%
29	COc1ccc(C(=O)COC(=O)CN2C(=O)NC(C)(C)C2=O)cc1OC	nt	nt	-2.3	-25.4	nt	nt	nt	0.731	23.8%
30	CN1CC(=O)NC1=NC(=O)c1ccc(Cl)c(S(=O)(=O)N2CCCCCC2)c1	nt	nt	3.1	-0.6	nt	nt	nt	0.685	6.5%
31	COc1ccc([C@H]2C[C@@H](n3cc(C4CC4)nn3)[C@H](O)CN2C(=O)C2CCCCC2)cc1	-0.7	i	-3.6	nt	6.6	5.2	0.6	nt	nt
32	COc1ccc(C(=S)Nc2ccc(C)cc2)cc1	nt	nt	-1.1	-9.2	nt	nt	nt	0.687	1.1%
33	COc1ccc(NC(=O)Nc2ccc3c(c2)C(=O)N([C@H](C)CO)C[C@@H](C)[C@H](CN(C)C(=O)NC(C)C)O3)cc1	-3.0	i	nt	nt	2.5	3.9	0.2	nt	nt
34	O=S(=O)(Nc1cccc2ccccc12)c1ccccc1	0.1	i	-3.0	nt	-6.4	-7.7	-2.8	0.708	-2.2%
35	O=[N+]([O-])c1ccc(NN=CC2CCCCCC2)c([N+](=O)[O-])c1	4.1	i	0.6	nt	nt	nt	nt	nt	nt
36	COc1c(Br)cc(Br)cc1C(=O)O	nt	nt	1.8	-2.2	nt	nt	nt	0.732	3.1%
37	CNS(=O)(=O)c1cccc(C(=O)OCc2cc(Cl)cc3c2OCOC3)c1	nt	nt	2.6	-4.1	nt	nt	nt	0.678	2.0%
38	COc1ccccc1OCCNC(=O)c1ccc(S(=O)(=O)N(C)C)cc1	1.1	i	-1.9	-4.9	-18.0*	1.0*	0.3*	0.678	-3.3%
39	COc1cc2c(cc1NC(=O)c1cc(-c3cccnc3)nc3ccc(C)cc13)oc1ccccc12	-31.8	i	4.9	-3.0	20.1	8.0	-5.5	0.735	-1.4%
40	Cn1c(C(=O)NCCN2CCCCCC2)cc2c(=O)n(C)c3ccccc3c21	-0.6	i	20.2	-5.7	-4.9	-3.6	5.0	0.754	-0.5%
41	CN1CCN(C(=S)NC(=O)c2ccccc2Cl)CC1	-0.7	i	-0.1	0.6	5.1	6.7	-3.2	0.725	nt
42	O=C(C[C@@H]1C=C[C@H](NC(=O)Cc2cccnc2)[C@H](CO)O1)Nc1ccccc1	-0.1	i	nt	nt	-2.4	3.2	1.3	nt	nt
43	CC(C)=NOCC(=O)Nn1c(COc2ccccc2)nc2ccccc2c1=O	-1.7	i	0.8	nt	-3.3	0.6	-15.7	0.671	nt
44	COc1cc(/C=N\NC(=O)c2cccnc2)ccc1OC(=O)c1ccccc1Cl	-1.8	i	0.7	-4.2	5.1	4.1	0.3	nt	nt
45	c1cncc(-c2nc(NCC3COc4ccccc4O3)c3ccccc3n2)c1 (centres undefined)	nt	nt	-1.3	-0.4	nt	nt	nt	0.735	-6.3%
46	O=C(CCc1nc2ccccc2c(=O)[nH]1)NNC(=O)COc1cccc(F)c1	2.0	i	0.7	-3.1	3.2	7.1	-0.7	0.646	-6.3%
47	Cc1cc(NC(=O)CSc2nnc(-c3cccs3)n2N)no1	nt	nt	-4.5	nt	nt	nt	nt	0.758	1.4%
48	O=C(Oc1c(-c2ccccc2)c(=O)n2c3c(cccc13)CC2)c1ccco1	-0.4	i	2.7	8.0	19.6	2.7	2.9	0.697	1.3%
49	CCCCn1c(SCc2cccc([N+](=O)[O-])c2)nc2ccsc2c1=O	6.7	i	0.9	-2.2	-6.8	-21.4	-13.9	0.723	?
50	O=C(c1ccc(-n2c(SCc3cc(F)ccc3F)nc3ccccc3c2=O)cc1)N1CCOCC1	3.1	i	0.7	-28.6	5.3	-0.4	5.3	0.707	26.4%

Marked active in ALR inh, of those listed so far:
entry | smiles | MLL AF4-AF9 inh | ALR inh | Ecoli rRNA inh | Ecoli rRNA inh OD600 | Ecoli rRNA inh RFP | Vif A3G
26 | O=c1oc2ccccc2cc1NCc1ccccc1O | 19.3 | 96.3* | -36.8 | -49.2 | -5.4 | 7.1%

3 compounds out of the list above, sorted by the number in Ecoli rRNA inh, falling.
No. | structure | MLL AF4-AF9 inh | ALR inh | Ecoli rRNA inh | Ecoli rRNA inh OD600 | Ecoli rRNA inh RFP | Vif A3G
20 | C[C@@H]1CN([C@@H](C)CO)C(=O)c2cc(NC(=O)Nc3cccc4ccccc34)ccc2O[C@@H](C)CCCCO[C@@H]1CN(C)Cc1ccc(C(=O)O)cc1 | 2.2 | nt | -0.8 | 0.5 | 2.6 | nt
49 | CCCCn1c(SCc2cccc([N+](=O)[O-])c2)nc2ccsc2c1=O | 6.7 | -2.2 | -6.8 | -21.4 | -13.9 | ?
8 | Cc1cc(Cl)ccc1C(=O)C1CCCN(C(=O)/C=C/c2cnn(C)c2)C1 (centres undefined) | -58.5 | -1.5 | -17.0 | -9.6 | -2.5 | 4.6%

These rows are one share of the data. The share of hits here may be higher or lower than overall.
